# VDR inh = Inhibitors of the vitamin D receptor (VDR): qHTS; AID 504847, 2011; Potency, µM, for the others: max response, negative = inhibition, usual class: inhibitors; VDR-SRC2-3 peptide fluorescence polarization, 2 h; actives 0.93% (n = 400,000); active = well fitted inhibition curve with a large enough effect; inconclusive = small, poorly fitted or top-dose-only effect, or another doubt; inactive = no such curve, though single readings can be large or run the other way; note: series mostly up to about 120 µM
# Target sequence (P11473 whole entry, looked up): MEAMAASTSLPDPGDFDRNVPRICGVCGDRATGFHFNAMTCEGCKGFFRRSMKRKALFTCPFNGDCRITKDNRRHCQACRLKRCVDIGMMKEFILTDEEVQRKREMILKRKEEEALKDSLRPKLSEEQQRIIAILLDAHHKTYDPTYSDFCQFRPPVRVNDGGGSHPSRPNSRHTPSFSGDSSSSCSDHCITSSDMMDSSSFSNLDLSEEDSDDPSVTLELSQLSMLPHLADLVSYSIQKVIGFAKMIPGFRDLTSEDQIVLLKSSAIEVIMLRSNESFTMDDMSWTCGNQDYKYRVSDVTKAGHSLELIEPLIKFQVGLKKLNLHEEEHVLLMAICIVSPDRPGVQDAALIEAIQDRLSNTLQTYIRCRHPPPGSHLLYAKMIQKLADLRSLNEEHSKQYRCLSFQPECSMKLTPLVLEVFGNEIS
#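 The screen uses fluorescence polarization to detect compounds that interfere with recruitment of the SRC2-3 coactivator peptide to VDR; plates are read after 2 h at room temperature.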
# Starred values were filed as active, the others as inactive; u = inconclusive; & = joins results of further samples; [ ] = another dose, or the depositor's remark. % is set by controls: 0 for no effect and ±100 for the full control effect; potency is the fitted concentration of half-maximal effect. Some of the compounds tested, so the mix of outcomes need not match the whole.
VDR inh	Structure
11%	CC1(C)CC(=O)C(C=NCC(O)c2ccccc2)=C(O)C1 (configuration not stated)
-8%	CCOC(=O)c1ccccc1NC(=O)c1ccc(Cl)c(S(=O)(=O)N2CCOCC2)c1
-6%	Cc1cc(CN2CCN(c3ccc(F)cc3)CC2)cs1
5%	Cc1c(N=Cc2cccs2)c(=O)n(-c2ccccc2)n1C
-23%	CC(=O)Nc1cccc(NC(=O)CSc2nc(C3CC3)nc3ccccc23)c1
7%	COc1cccc(C(=O)Nc2cc(=O)n(C)c(=O)n2C)c1OC
-9%	c1ccc(Cn2ncc3c(N4CCOCC4)ncnc32)cc1
-22%	Oc1ccc(/C=N/N2CCN(Cc3ccccc3)CC2)cc1
-10%	Cc1ccc(S(=O)(=O)Nc2ccc(NC(=O)c3cccnc3)cc2)cc1
-6%	O=C1CN(C(=O)/C=C/c2cc(Br)ccc2F)CCN1
-14%	COc1ccc(Cl)cc1NS(=O)(=O)c1cccc(C(=O)NCC2(N(C)C)CCCCC2)c1
u	CCN(CC)c1ccc(NC(=O)CN(C)Cc2cccs2)cc1
-18%	O=[N+]([O-])c1cccnc1Sc1n[nH]c(-c2ccc(Cl)cc2)n1
1%	O=C(NCc1ccccn1)/C(=C/c1ccco1)NC(=O)c1ccccc1
4%	O=C(COC(=O)/C=C/c1ccc(Cl)cc1Cl)Nc1cc(C(F)(F)F)ccc1N1CCOCC1
7%	COc1ccc(-n2c(CN3CCN(C)CC3)nc3ccc([N+](=O)[O-])cc3c2=O)c(OC)c1
9%	CCOc1ccc(-n2c(=S)sc3c(=O)[nH]c(SCC(=O)NCc4ccco4)nc32)cc1
-16%	Cc1cccc(N2CCN(C(=O)c3cc4c(=O)n(C)c5ccccc5c4s3)CC2C)c1 (configuration not stated)
-14%	CC(C)OCCCNC(=O)c1cc2c(-c3ccc(Cl)cc3)nn(C)c2s1
21%	CCc1ccc(NC(=O)CSc2nnnn2C)cc1
3%	C/C=C/C(=O)OCC(=O)Nc1ccc(OC)c(OC)c1
10%	CS(=O)(=O)c1ccc2nc(NC(=O)c3ccc(Cn4cc(Br)cn4)o3)sc2c1
-6%	CN(/N=C/c1cccs1)c1cc(=O)n(C)c(=O)[nH]1
-14%&8%	OCCCc1nc2ccccc2n1CCCCOc1ccccc1
-7%	Cc1ccc(S(=O)(=O)c2nc(-c3cccs3)oc2SCC(N)=O)cc1
-5%	CC(=O)C1=C(C)NC(SCC(N)=O)=C(C#N)C1c1ccco1 (configuration not stated)
5%	Cc1cc(C)nc(/N=C(\N)Nc2ccc(OCc3ccccc3)cc2)n1
-17%	Cc1cccc(Nc2nc(N)nc(CN3CCN(c4ccccc4F)CC3)n2)c1
-9%	O=C1NCCN/C1=C\C(=O)c1ccc(F)cc1
-3%	CC(C)NC(=O)CCCc1cn(C)c2ccccc12

# Given as comma-separated lines: 2 of the compounds above.
mol,VDR inh
CN(/N=C/c1cccs1)c1cc(=O)n(C)c(=O)[nH]1,-6%
OCCCc1nc2ccccc2n1CCCCOc1ccccc1,-14%&8%

# Ordered by SMILES length (low to high): some entries from above
VDR inh	Structure
21%	CCc1ccc(NC(=O)CSc2nnnn2C)cc1
-3%	CC(C)NC(=O)CCCc1cn(C)c2ccccc12
-6%	Cc1cc(CN2CCN(c3ccc(F)cc3)CC2)cs1
-6%	O=C1CN(C(=O)/C=C/c2cc(Br)ccc2F)CCN1
5%	Cc1c(N=Cc2cccs2)c(=O)n(-c2ccccc2)n1C
7%	COc1cccc(C(=O)Nc2cc(=O)n(C)c(=O)n2C)c1OC
-5%	CC(=O)C1=C(C)NC(SCC(N)=O)=C(C#N)C1c1ccco1 (configuration not stated)
5%	Cc1cc(C)nc(/N=C(\N)Nc2ccc(OCc3ccccc3)cc2)n1
-10%	Cc1ccc(S(=O)(=O)Nc2ccc(NC(=O)c3cccnc3)cc2)cc1
-23%	CC(=O)Nc1cccc(NC(=O)CSc2nc(C3CC3)nc3ccccc23)c1
10%	CS(=O)(=O)c1ccc2nc(NC(=O)c3ccc(Cn4cc(Br)cn4)o3)sc2c1
-8%	CCOC(=O)c1ccccc1NC(=O)c1ccc(Cl)c(S(=O)(=O)N2CCOCC2)c1
9%	CCOc1ccc(-n2c(=S)sc3c(=O)[nH]c(SCC(=O)NCc4ccco4)nc32)cc1
4%	O=C(COC(=O)/C=C/c1ccc(Cl)cc1Cl)Nc1cc(C(F)(F)F)ccc1N1CCOCC1
7%	COc1ccc(-n2c(CN3CCN(C)CC3)nc3ccc([N+](=O)[O-])cc3c2=O)c(OC)c1

# (further entries)
VDR inh	Structure
15%	CCn1cc(C(=O)NCC2CCCO2)c(=O)c2cc(F)c(N3CCN(C)CC3)cc21 (configuration not stated)
4%	CCN1CCN(C(=O)c2ccc3c(=O)n(CCC4=CCCCC4)c(=O)[nH]c3c2)CC1
-10%	COc1ccc(N2CCN(CCCNC(=O)CCC(=O)N3CCOc4ccc(Cl)cc43)CC2)cc1
3%	Cc1ccc(C)c(NC(=O)CSc2nnc([C@@H]3CCCN3C(=O)OC(C)(C)C)o2)c1
-3%	CC(=O)OC(C(=O)NCc1ccco1)c1ccncc1 (configuration not stated)
-1%	COCCn1c(C)cc(C2=NNC(=NC3CC3)SC2)c1C
7%	Cc1ccc(NC(=O)CCCn2nc(C)c3c(C)n(-c4ccccc4)nc3c2=O)cc1Cl
2%	O=C(N/N=C/c1ccccc1)c1cc[n+]([O-])cc1
-17%	CCCOc1ccc(OCC(=O)c2[nH]c(C)c(C(C)=O)c2C)cc1
17%	Cc1ccc(Cn2c(SCc3ccc(C(=O)NC4CCCCC4)cc3)nc3ccncc32)cc1
-12%	CCN(CC)S(=O)(=O)c1ccc(C2=NOC3(C2)N(C)c2ccccc2C3(C)C)cc1 (configuration not stated)
-18%	CCC1CCCCN1C(=O)CSc1nc(N)cc(=O)[nH]1 (configuration not stated)
-10%	CCCCNCC(O)(c1ccc(Cl)cc1)c1ccc(Cl)cc1
-16%	FC(F)(F)c1cnc(-c2cnc3c(-c4ccc(Cl)cc4)cnn3c2)c(Cl)c1
4%	Cn1c(CCN2CCCCC2)nc2cc([N+](=O)[O-])ccc21
-13%	O=C(CCCC(=O)c1ccc(O)cc1)c1ccc(O)cc1
-2%	NC(=O)CSc1nnc2n(-c3ccccc3)c(=O)c3c4c(sc3n12)CCCCC4
5%	COc1ccc(C2C(C(=O)Nc3cccc(OC)c3)c3ccccc3C(=O)N2C)cc1 (configuration not stated)
6%	O=C1CC(N2CCN(Cc3ccc4c(c3)OCO4)CC2)C(=O)N1CCc1ccccc1 (configuration not stated)
3%	O=C(Nc1ccc(C(=O)O)cc1)/C(=C\C=C\c1ccccc1)NC(=O)c1ccc(Br)cc1
-5%	COc1ccc(-c2nn(CCC(=O)O)cc2/C=C2\SC(N)=NC2=O)cc1
28%	O=C(O)/C(=C\c1cccs1)c1ccccc1
-7%	O=C(CCC1CCCC1)Nc1ccon1
-7%	CS(=O)(=O)N1CCC(C(=O)NNC(=O)Nc2ccc(F)c(Cl)c2)CC1
-6%	Cc1ccc(C(=O)Nc2ccc(NC(=O)c3ccco3)c(C)c2)cc1
6%	CSc1nc(Nc2ccc(F)cc2)cc(-c2ccccc2)n1
3%	CCN(C(=O)C(C)N1C(=O)/C(=C/c2cccs2)SC1=S)C1CCS(=O)(=O)C1 (configuration not stated)
2%	CCCCN(C)C(=O)c1nc2ccccn2c1CNCCCn1nnc2ccccc21
22µM*	COC(=O)C1=C(C)N(Cc2ccco2)C(=O)/C1=C\c1ccc([N+](=O)[O-])cc1
-19%	O=C(CCc1ccccc1)NN1C(=O)C2C3C=CC(C3)C2C1=O (configuration not stated)
-2%	Cc1ccc(NC(=O)C2CCCN2S(=O)(=O)c2cccc3cccnc23)cc1 (configuration not stated)
-17%	CCN(CC)S(=O)(=O)c1ccc2c(c1)nc(-c1ccccn1)n2C
-12%	O=C(NCc1ccco1)c1ccccc1NS(=O)(=O)c1cccs1
-22%	CC(C)NC(=O)C1COc2ccccc2O1 (configuration not stated)
u	CSC1=NC(C)(C)C=C(/C=C/c2ccc(Cl)cc2Cl)N1
-16%	Cc1ccc([C@@H]2[C@@H]3C(=O)N(c4ccccc4)C(=O)[C@@H]3[C@]3(Cc4ccccc4)C(=O)N(CC4CC4)CC(=O)N23)o1
-7%	COc1ccc(S(=O)(=O)N2CCOCC2)cc1NC(=O)COc1ccc(C(C)=O)cc1OC
2%	CCOc1cc(CNCCCN2CCOCC2)ccc1OCC(=O)Nc1cccc2ccccc12
6%	Clc1cccc(Cl)c1Cn1cnc2c(N3CCCCCC3)ncnc21
-24%	CC(=O)O[C@H]1C2OC(=O)C(C)=C2[C@@H]2OC(=O)[C@]3(CCC4OC41C)OC23 (some centres not stated)
0%	Cc1ccsc1C(=O)OCC(=O)NCC1CCCO1 (configuration not stated)
12%	O=C(Nc1cccc(C(=O)Nc2ccc(Cl)cn2)c1)c1ccccc1
-12%	NC(=O)CSc1nnc(Cc2cccs2)n1C1CCCCC1
1%	COc1ccc(CCNC(=O)c2cc3c(=O)n4cccc(C)c4nc3s2)cc1OC
-2%	COc1ccc(OC)c(NC(=O)c2cc(=O)c3c(C)cc(C)cc3o2)c1
-4%	CSc1ccc(/C=N/N2CCN(Cc3ccccc3Cl)CC2)cc1
0%	O=C1c2ccccc2C2NC(=O)C3(CCCCC3)N12 (configuration not stated)
-14%	O=C(OCC(=O)N1CCOCC1)c1ccc[nH]c1=O
-5%	CCOC(=O)CSc1nc2sc(C)c(C)c2c(=O)[nH]1
11%	O=C(Nc1cccc(Cl)c1)c1ccc(-n2cncn2)c([N+](=O)[O-])c1
0%	CCOP(=O)(OCC)C(NC(=O)Nc1c(C)cc(C)cc1C)c1ccccc1 (configuration not stated)
12%	O=C(Cn1nc(-c2ccccc2)c2ccccc2c1=O)NCCO
-14%	Cc1n[nH]c(=S)n1-c1cccc(Cl)c1
-8%	Cc1ncc(CO)c(/C=N/NC(=O)c2cc(Br)ccc2O)c1O
-23%	CCOc1ccc2nc(SCC(=O)Nc3cc(C)on3)c(C)cc2c1
9%	CCN1C(=O)N(CC)c2cccc3cccc1c23
-8%	CCCc1cc(=O)n2[nH]c(NCc3ccccc3F)nc2n1
14%	CCOC(=O)c1nnn(-c2nc(N3CCCC3)nc(N3CCCC3)n2)c1-c1ccccc1
-8%	Cc1cc(C)n(C2CC(=O)N(c3ccc(Cl)c(Cl)c3)C2=O)n1 (configuration not stated)
4%	COc1ccc(N2CC(C(=O)Nc3cc(C)ccn3)CC2=O)cc1 (configuration not stated)

# Further structures follow:
VDR inh	Structure
32%[activator]	Cc1nc2ccc(Br)cc2c2c1CC(CO)O2 (configuration not stated)
-22%	CCCN1C(=O)c2ccc(C(=O)NCc3ccco3)cc2C1=O
-3%	CN1/C(=C/C(=O)c2ccc(Cl)cc2)Sc2cc3c(cc21)OCO3
-7%	CCOC(=O)c1cc(=O)n2nc(-c3ccccc3F)nc2s1
4%	c1ccc(N2CCN(Cc3cccn3-c3nnc(N4CCN(C5CCCCC5)CC4)s3)CC2)cc1
-1%	Cc1ccc(S(=O)(=O)Cc2nc3ccccc3c(=O)[nH]2)cc1
45µM*	Cc1ccc(/C=C/C(=O)c2ccccc(=O)c2O)cc1C
8%	CC/C(=N\NC(=O)C1CCCC1)c1ccc(Br)cc1
-2%	CC1CCCC(C)N1C(=O)Cn1c(SCC(=O)NCc2ccc3c(c2)OCO3)nc2ccccc21 (configuration not stated)
-12%	N#Cc1ccc(CN2CCN(C(=O)CNS(=O)(=O)c3ccc4c(c3)OCCCO4)CC2)cc1
-4%	COc1cc(C(=O)OCC(=O)NC2CCS(=O)(=O)C2)c([N+](=O)[O-])cc1OC (configuration not stated)
17%	CCN(CC)c1ccc2c(C)c(CN3CCOCC3)c(=O)oc2c1
9%	CC(C)CC(=O)Nc1nnc2n1CCS2
8%	CCN(CC(=O)Nc1ccc(OC)cc1)C(=O)CCS(=O)(=O)c1ccc(C)cc1
-12%	Nc1ncnc(Sc2ccccc2)c1[N+](=O)[O-]
-1%	CCc1ccc(NC(=O)C(=O)NCCc2sc3nc(-c4ccc(OC)cc4)nn3c2C)cc1
-11%	C/C(=N\OCC(=O)OC(C)C(=O)Nc1ccc(C(N)=O)cc1)c1ccc2c(c1)OCO2 (configuration not stated)
-12%	NC(=O)c1ccccc1OCc1nnc(-c2ccccc2Br)o1
12%	O=C1CC(c2ccc(F)cc2)CC(O)=C1C=NCCN1CCNCC1 (configuration not stated)
-10%	CN(C(=O)c1cccc(NC(=O)Cc2ccc(NC(=O)C3CCCN(C(=O)c4ccccc4)C3)cc2)c1)C1CCCC1 (configuration not stated)
-18%	CN1CCN(CC(=O)Nc2nc3ccccc3s2)CC1
-13%	CCC1Nc2ncnc(N3CCOCC3)c2N(Cc2ccc(Br)cc2)C1=O (configuration not stated)
1%	Cc1ccc(-c2noc(-c3ccno3)n2)cc1
13%	O=C(O)c1cccc(NC(=O)c2cccc(S(=O)(=O)N3CCc4ccccc4C3)c2)c1
-8%	CCOC(=O)c1ccc(NC(=O)CN2C(=O)NC3(CCCCCCC3)C2=O)cc1
8%	COc1cccc(N2CCN(c3nc(C)cc(=O)[nH]3)CC2)c1
-8%	COCCN(C(=O)COC(=O)CCc1c[nH]c2ccccc12)c1c(N)n(Cc2ccccc2)c(=O)[nH]c1=O
4%	CCCCC(=O)N1CCCC(C(=O)OCC)C1 (configuration not stated)
1%	Cc1csc2nc(CSc3nc4ccccc4o3)c(Br)n12
-2%	Cc1c(NC(=O)c2cccs2)cccc1NC(=O)c1cccs1
8%	Cn1cncc1C#Cc1ccc2cc(C(C)(C)O)oc(=O)c2c1
-6%	O=C(O)c1ccccc1C(=O)c1ccc(Oc2ccccc2)cc1
3%	Cc1nn(CC(=O)N2CCN(S(=O)(=O)c3ccccc3)CC2)c(C)c1[N+](=O)[O-]
17%	CCN(Cc1nc2ccccc2c(=O)[nH]1)C(=O)c1cccc(S(=O)(=O)N2CCc3ccccc32)c1
79µM*	CCCCOc1ccc(/C=C/C(=O)Nc2ccc(C(N)=O)cc2)cc1
